Mtb bLac sens = beta-lactam sensitization of Mtb H37Rv; M. tuberculosis H37Rv growth with meropenem, percent inhibition; hits of this screen are not shown here; inhibition, % at 25 µM; 330,000 compounds, 0.27% hits;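 active = about 74% or more and at least 40 points above the plate without the antibiotic, then above 30% in a dose series; inconclusive = first-round hits that could not be retested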;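 note: growth measured after seven days incubation then overnight dye step; 0% = bacteria only wells and 100% = bacteria with antibiotic; twin plates without the antibiotic show which effects depend on it; some results filed as inactive read as strong as hits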
RecA intein inh = Mtb RecA intein splicing inhibition. cell-free RecA intein splicing, fluorescence. inhibition, %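 (about 9 µM by stock and volumes)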. 290,000 compounds, 0.75% hits. AID 2221; in the data active = inhibition above about 30%; inconclusive = no clear call, values can overlap the other calls;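 note: 0% = vehicle wells and 100% = reference inhibitor control wells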
Target sequence (P9WHJ3 whole entry, looked up): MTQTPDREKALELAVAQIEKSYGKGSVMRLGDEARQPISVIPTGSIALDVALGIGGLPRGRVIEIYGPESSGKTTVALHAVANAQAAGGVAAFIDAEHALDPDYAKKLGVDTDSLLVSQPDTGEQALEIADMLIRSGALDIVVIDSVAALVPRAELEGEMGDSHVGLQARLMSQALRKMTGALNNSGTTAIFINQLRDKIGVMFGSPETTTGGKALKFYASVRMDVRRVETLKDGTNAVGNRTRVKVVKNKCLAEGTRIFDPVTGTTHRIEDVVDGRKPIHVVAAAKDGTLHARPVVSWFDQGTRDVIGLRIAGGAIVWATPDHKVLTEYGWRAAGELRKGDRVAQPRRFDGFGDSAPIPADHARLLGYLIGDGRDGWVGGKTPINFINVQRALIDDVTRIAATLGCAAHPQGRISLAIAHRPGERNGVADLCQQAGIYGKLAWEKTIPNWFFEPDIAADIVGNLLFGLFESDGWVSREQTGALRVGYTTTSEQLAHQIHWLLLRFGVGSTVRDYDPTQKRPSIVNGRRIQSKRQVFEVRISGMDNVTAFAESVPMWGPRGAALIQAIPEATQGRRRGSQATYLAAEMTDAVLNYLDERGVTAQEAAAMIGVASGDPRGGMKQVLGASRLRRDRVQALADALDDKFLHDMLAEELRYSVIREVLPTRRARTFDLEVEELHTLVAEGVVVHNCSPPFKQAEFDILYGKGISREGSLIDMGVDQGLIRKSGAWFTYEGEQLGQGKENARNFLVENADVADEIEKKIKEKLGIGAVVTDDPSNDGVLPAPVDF
Mtb growth = M. tuberculosis H37Rv growth inhibitors, H37Rv strain (AID 1626); M. tuberculosis H37Rv growth inhibition; higher % means a stronger effect; one-dose inhibition, % at 10 µM; IC50 in µM for titrated hits; 220,000 compounds, 0.95% hits;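 active = confirmed in a dose series; inconclusive = inhibition above 80% but not taken into the dose series; inactive = below 80% or under 30% at every dose of the series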;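 note: bacteria incubated seven days before Alamar blue readout; 0% = bacteria only wells and 100% = bacteria with antibiotic wells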
Arbovirus inh = arbovirus infection inhibition. arbovirus infection cell-based antiviral screen. inhibition, % at 10 µM. 200,000 compounds, 0.37% hits. AID 1251;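 active = inhibition from about 30%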;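 note: bluetongue infection of BSR cells; cell survival read as ATP light after 72 h; 0% = infected wells without compound and 100% = uninfected wells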
YopH inh = blocks Yersinia enterocolitica YopH tyrosine phosphatase; fluorescence Ex485/Em525; inhibition, %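 (about 10 µM by stock and volumes)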; 140,000 compounds, 0.16% hits;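 active = inhibition of 50% or more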;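 note: controls were vehicle for no effect and minimum signal wells for full effect; inactives centre near -20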
An asterisk follows results filed as active; ? = inconclusive; . = no result given.

SMILES	Mtb bLac sens	RecA intein inh	Mtb growth	Arbovirus inh	YopH inh
CCOc1c(OC(C)=O)ccc(/C=C2\N=C(SCC)SC2=O)c1[N+](=O)[O-]	0	-4.0	-9%	7	-25
Cc1c(C(=O)O)[nH]c2c1C(=O)CC(c1ccc(C(C)(C)C)cc1)C2 (configuration not stated)	4	-0.7	.	.	.
COc1cc(C(=O)Nc2ccc3c(c2)OCO3)ccc1OCc1c(C)noc1C	3	3.1	6%	-21	.
Cc1cc(C(=O)CN2C(=O)C(=O)N(Cc3ccccc3)C2=O)c(C)n1CC1COc2ccccc2O1 (configuration not stated)	-1	-0.6	-5%	-21	.
Cc1c([N+](=O)[O-])cc(S(=O)(=O)Nc2ccc(-c3ccc(N4CCCC4)nn3)cc2)cc1[N+](=O)[O-]	-8	-2.6	.	.	.
C/C(=N\N=C1\NC(=O)C(CC(=O)NCc2ccccc2)S1)C(C)C (configuration not stated)	-3	1.8	4%	5	.
COC(=O)C(Cc1ccc(O)cc1)NC(=O)CCc1ccco1 (configuration not stated)	-2	1.8	.	.	.
CC(=O)Nc1ccc(NC(=O)CN(c2cc(Cl)ccc2Cl)S(C)(=O)=O)cc1	-7	3.3	5%	-2	.
CCOCCCn1c(SCC(=O)NCc2ccc3c(c2)OCO3)nc2ccccc2c1=O	7	3.6	5%	-9	.
CCN(C(=O)COC(=O)c1ccccc1SCC(=O)N1CCCC1)C1CCS(=O)(=O)C1 (configuration not stated)	-4	-0.1	.	.	.
COc1ccc(C(CNC(=O)CCNC(=O)c2ccccc2OC)N2CCCC2)cc1 (configuration not stated)	0	-3.2	.	.	.
Cc1cccc2nc(COc3ccc(-c4ccccc4)cc3)cn12	16	0.5	-2%	10	.
Cc1cc(C)nc(N2CCC(C(=O)NCCc3ccc(Cl)cc3)CC2)n1	-6	.	3%	-1	.
COC(=O)c1ccc(NC(=O)C2CCCN2C(=O)OCc2ccccc2)cc1 (configuration not stated)	-5	2.0	.	.	.
O=C1c2ccccc2CC1Sc1nnc(-c2ccccn2)o1 (configuration not stated)	.	4.3	-9%	-6	-34
CCOP(=O)(OCC)c1cccc(P(=O)(c2ccccc2)c2ccccc2)c1O	-3	2.0	.	.	.
O=C(NCCN1CCN(C(=O)NC2CCCCC2)CC1)NC1CCCCC1	-10	0.4	7%	5	-30
Cc1ccc(C)c(-n2c(SCC(=O)N3CCCC3)nnc2-c2ccccn2)c1	-8	1.0	-9%	0	-23
O=C(Oc1ccc2ccc(=O)oc2c1)C1CCCCC1	4	-71	-1%	4	-27
CCn1c(SCC(=O)NNC(=O)c2ccco2)nnc1-c1ccco1	-6	-1.4	-10%	8	.
Cc1c(Cl)c([N+](=O)[O-])nn1CCCC(=O)Nc1cccnc1	-3	-3.4	3%	11	.
COc1ccccc1OCCSc1nc(N)cc(N)n1	2	-1.1	-4%	-2	14
Cn1cc(S(=O)(=O)N2CCC3(CC2)OCCO3)c(=O)n(C)c1=O	-1	-1.6	4%	1	.
CC1CCN(S(=O)(=O)c2ccc3c(c2)N(CC(=O)NCCCN2CC(C)CC(C)C2)C(=O)CS3)CC1 (configuration not stated)	-3	1.5	.	.	.
O=C(NC1=NCCS1)C1CC(=O)N(c2ccccc2)C1 (configuration not stated)	-5	0.6	-6%	1	-26
Cc1onc(-c2c(F)cccc2Cl)c1C(=O)c1ccc(F)cc1	-2	6.6	-9%	.	.
O=C(Nc1cccc(C(=O)N2CCOCC2)c1)c1ccccc1Cl	-9	-1.4	.	.	.
O=C(Nc1cccc(-c2cnc3ccccc3n2)c1)C1CC(=O)N(c2ccccc2)C1 (configuration not stated)	27	-1.7	.	.	.
CCS(=O)(=O)N1CCN(C(=O)C(c2ccccc2)c2ccccc2)CC1	3	-0.6	-18%	3	11
C=CCn1cc(-c2ccc(Cl)cc2)cc(C#N)c1=O	-6	-0.4	-15%	12	-26

Reprinted at random: 4 compounds from above.
SMILES	Mtb bLac sens	RecA intein inh	Mtb growth	Arbovirus inh	YopH inh
CCS(=O)(=O)N1CCN(C(=O)C(c2ccccc2)c2ccccc2)CC1	3	-0.6	-18%	3	11
CCn1c(SCC(=O)NNC(=O)c2ccco2)nnc1-c1ccco1	-6	-1.4	-10%	8	.
CCOP(=O)(OCC)c1cccc(P(=O)(c2ccccc2)c2ccccc2)c1O	-3	2.0	.	.	.
COC(=O)C(Cc1ccc(O)cc1)NC(=O)CCc1ccco1 (configuration not stated)	-2	1.8	.	.	.

Next records
SMILES	Mtb bLac sens	RecA intein inh	Mtb growth	Arbovirus inh	YopH inh
Cc1c(NC(=O)COc2ccc3ccc(=O)oc3c2)c(=O)n(-c2ccccc2)n1C	-3	-5.8	.	.	.
CC(C)(C)C(=O)Nc1nnc(CCc2ccccc2)s1	7	0.1	.	.	.
FC(F)(F)c1cc(-c2ccco2)nc(-n2cnc3ccccc32)n1	.	1.4	1%	-12	-22
Cc1ccc(NC(=O)CCN2C(=O)c3ccccc3C2=O)c(C)c1	1	-0.7	.	.	.
O/N=C/c1cc(Cl)ccc1OCc1cccc2ccccc12	3	19	12%	-30	-32
COCCNC(=O)c1ccc(CS(=O)(=O)c2ccc(Cl)cc2)o1	-6	-2.2	-3%	2	-31
CC(C)CCn1c(=O)c2ccccc2n2c(CN3CCCC3)nnc12	6	0.4	5%	1	.
O=C(NC1CCCC1)C(c1ccncc1)N(C(=O)c1csnn1)c1ccc(F)c(Cl)c1 (configuration not stated)	3	7.9	.	.	.
Cc1cc(=O)nc2c3ccccc3n(C(C)C(=O)Nc3cc(F)ccc3F)n12 (configuration not stated)	4	0.2	.	.	.
COc1cccc(N2CCN(S(=O)(=O)c3cccc4nsnc34)CC2)c1	1	0.4	0%	8	.
CCOc1ccc(Oc2c(/C=N/NC(N)=O)c(C)nn2-c2ccccc2)cc1	55	-3.9	7%	7	-7
O=C(Nc1ccc2c(c1)OCCO2)C1CC(O)CN1C(=O)Nc1ccccc1 (configuration not stated)	0	1.4	.	.	.
Cc1cc(C(F)F)n2ncc(C(=O)N3CCC(C(N)=O)CC3)c2n1	-17	0.3	-7%	9	8
COc1ccc(-n2c(-c3ccc(Br)cc3)nc(=S)c3c2CCCC3)cc1	-5	1.0	-2%	14	-37
CCc1cc(C(=O)NNC(=S)Nc2cc(C)ccc2C)cs1	9	4.1	-4%	-4	-34

A different layout for some results above:
| structure | Mtb bLac sens | RecA intein inh | Mtb growth | Arbovirus inh | YopH inh |
| --- | --- | --- | --- | --- | --- |
| CCOCCCn1c(SCC(=O)NCc2ccc3c(c2)OCO3)nc2ccccc2c1=O | 7 | 3.6 | 5% | -9 | . |
| Cc1ccc(C)c(-n2c(SCC(=O)N3CCCC3)nnc2-c2ccccn2)c1 | -8 | 1.0 | -9% | 0 | -23 |
| O=C1c2ccccc2CC1Sc1nnc(-c2ccccn2)o1 (configuration not stated) | . | 4.3 | -9% | -6 | -34 |
| FC(F)(F)c1cc(-c2ccco2)nc(-n2cnc3ccccc32)n1 | . | 1.4 | 1% | -12 | -22 |
| COc1ccccc1OCCSc1nc(N)cc(N)n1 | 2 | -1.1 | -4% | -2 | 14 |

Next compounds follow.
SMILES	Mtb bLac sens	RecA intein inh	Mtb growth	Arbovirus inh	YopH inh
Cc1nc2ccccn2c1-c1csc(Nc2ccc(C(=O)O)cc2)n1	6	-0.1	.	.	.
Cn1cc(CNCCN2CCCCC2=O)c(-c2cccc(Cl)c2)n1	-3	-1.7	0%	-5	.
CC1Cc2ccccc2N1Cc1cc(=O)c(OCC(=O)NCCc2ccccc2)co1 (configuration not stated)	0	0.8	.	.	.
COc1ccc(N(CN2C(=O)C3C4C=CC(C4)C3C2=O)C(=O)c2ccco2)cc1 (configuration not stated)	4	.	.	-5	-27
COc1cc(C(=O)OCC(=O)NC(=O)c2cccn2C)ccc1OC(F)F	-3	1.6	3%	9	.
C/C(=N\O)C(=O)NCCN(C)C	-3	0.8	53%	3	-11
O=C(/C=C/c1ccccc1)NC(=S)Nc1ccccc1	6	2.2	.	.	.
O=C(Cc1ccccc1)NCC(=O)OCC(=O)c1cccs1	5	-3.2	-7%	13	5
O=C(C1CCCCC1)N1CCN=C1SCc1cccnc1	-1	.	5%	-7	-12
Cc1ccc(NC(=O)CCc2c(C)nn(-c3ccc(N4CCOCC4)nn3)c2C)cc1C	-7	-2.7	.	.	.
NC(=O)C1=NOC(CNc2ncc(C(F)(F)F)cc2Cl)C1 (configuration not stated)	-6	2.0	-9%	6	-14
COc1ccc(Cn2nnnc2C(C(C)C)N2CCc3ccccc32)cc1 (configuration not stated)	9	7.6	7%	-25	10
CCOc1ccc(NC(=O)Nc2cccc(C)n2)cc1	11	1.3	.	.	.
O=S(=O)(c1ccccc1)c1nc(-c2ccc(F)cc2)oc1N1CCOCC1	18	-1.8	.	.	.
COc1ccc(NC(=O)CN2CCN(c3c(C)cccc3C)CC2)cc1	4	5.0	.	.	.
Nc1cccc(-n2nncc2-c2ccccc2)c1	-7	-0.4	0%	2	-4
O=C(CCN1C(=O)S/C(=C\c2ccccc2)C1=O)N1CCCCC1	-5	5.5	.	.	.
CC1(C)Cc2ccccc2-c2nnc(-c3cccnc3)n21	?	-2.2	.	7	2
O=C(c1cccs1)N(C(=O)c1cccs1)c1ccc(Br)cn1	14	11	5%	-2	7
Cc1ccc(NC(=O)c2cc3ccccc3o2)cc1Cl	93	3.7	.	.	.
Cc1cccc(NC(=S)NNC(=O)c2csc(C(C)C)c2)c1	-4	8.9	2%	10	-45
COc1ccccc1S(=O)Cc1ccc(C(=O)O)o1 (configuration not stated)	22	1.6	-7%	5	-38
COc1cc(NC(=O)C/C(C)=N/NC(=O)Cc2ccc(Cl)cc2)c(OC)cc1Cl	5	-0.9	-10%	-1	-21
CCn1cc([N+](=O)[O-])c(=O)c2cc(F)c(N3CCOCC3)cc21	5	-9.7	.	.	.
O=C(Cn1cnc2cc([N+](=O)[O-])ccc2c1=O)Nc1ccc(N2CCOCC2)cc1	-6	-4.8	-5%	.	.
CC(C)NC(=O)COC(=O)c1ccccc1CSC1=NCCS1	4	-0.2	.	.	.
CC(OC(=O)c1cc2sccc2n1C)C(=O)NCc1cccs1 (configuration not stated)	-2	-1.0	-5%	1	-32
COc1ccccc1-c1nc(COc2ccc(Cl)cc2Cl)no1	-4	1.3	-2%	.	.
O=C(NCC1OCCc2ccccc21)c1cc(COc2c(F)cccc2F)on1 (configuration not stated)	-9	1.6	8%	0	.
N=c1c(C(=O)NCCc2ccccc2)cc2c(=O)n3ccccc3nc2n1Cc1ccco1	7	-183	.	.	.
CCOC(=O)c1nn(-c2ccc(Cl)cc2)c2nnc(Cc3ccccc3)c(=O)n12	2	1.2	-2%	-4	-6
Cc1cc(C(=O)C(C)Cl)c(C)n1Cc1ccco1 (configuration not stated)	5	13	1%	21	.
O=C(CCN1CCCCC1)N/N=C/c1ccc(Br)cc1	5	-0.5	-4%	5	-26
CCCCCCCCCCCCS[C@H]1CS(=O)(=O)C[C@@H]1O	9	2.3	2%	.	.
Cc1ccc(-n2cc(-c3ccccc3)c3c(N4CCOCC4)ncnc32)cc1	.	2.0	71%	-34	.
COc1ccc(NC(=O)CN2CCC(C(N)=O)(N3CCCCC3)CC2)c(OC)c1	-8	4.1	4%	1	.
CC(=O)c1ccc(N2CCN(C(=O)c3cc(-c4ccncc4)nc4ccc(Cl)cc34)CC2)cc1	8	2.3	.	.	.
Cc1cccc(/C=C/C(=O)c2cc(Br)ccc(=O)c2O)c1	99	1.2	?	-37	-23
O=C(Cn1c(=O)c2ccccc2n(CC(=O)N2CCCCC2)c1=O)N1CCCCC1	-2	1.3	3%	.	.
CS(=O)(=O)N(CCc1ccccc1)CC(=O)N1CCc2ccccc2C1	-4	5.7	9%	1	-22
COc1ccc(N=C2SCC(c3ccc(C)cc3)=NN2CCO)cc1	3	7.9	3%	.	.
O=C(Cn1c(C(F)(F)F)nc2ccccc21)Nc1ccccc1N1CCOCC1	1	0.5	-4%	-2	-27
CCN(CC)S(=O)(=O)c1ccc(C)c(NC(=O)Cc2ccc(S(=O)(=O)N3CCOCC3)s2)c1	-4	-0.5	.	.	.
O=S(=O)(NCCSc1ccc(Cl)cc1)c1ccc(F)cc1	-14	5.2	6%	-3	-5
Cc1cc(O)c(NC(=O)c2cc([N+](=O)[O-])ccc2Cl)cc1C	7	-0.8	-1%	4	.
CN1C(=S)SC(/[N+]([O-])=C\c2ccccc2)C1(C)C (configuration not stated)	0	2.1	-6%	-3	-6
COc1ccc(CCC(C)NCCc2ccc(Cl)cc2Cl)cc1 (configuration not stated)	90	1.6	.	.	.
COc1ccc(N2CCN(C(=O)C3CCN(S(=O)(=O)c4ccc(F)cc4)CC3)CC2)cc1	-2	-4.3	7%	1	.
COc1ccc(NS(=O)(=O)c2ccc(NC(=O)c3ccc(CN4CCOCC4)cc3)cc2)cc1	-2	-2.4	2%	9	.
CCCCN(CC)C(=O)c1cc2cc3ccc(Cl)cc3nc2o1	29	0.4	.	.	.

Assay outcomes deposited in PubChem by several laboratories.

The list is partial; the hit share may differ from the screen's.
